Compound activity as filed in PubChem BioAssay.
rRNA inh HTS: selective bacterial rRNA inhibition in E. coli; AID 720706; actives 1.6% (n = 350,000); E. coli WT GFP vs humanized-ribosome RFP mutants, fluorescence, 24 h; hits give low values; DMSO median 0, no signal -100; GFP signal change (wild-type ribosome), % (concentration not given with the values);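 active = significant combined selectivity score with lowered wild-type GFP, culture density cut under 30%, mutant RFP and density less affected; inactive = any of these conditions unmet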; note: one replicate is shown; some compounds called inactive have numbers as strong as hits
A1 inh: inhibitors of the anti-apoptotic protein A1, read as caspase activation; MEF A1-2A-BIM cells, Caspase-Glo 3/7 luminescence, 3 h; percent of clofoctol response, vehicle zero; caspase activation, % (no concentration beside the values); actives 0.066% (n = 330,000); AID 2462;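 active = over half of replicate activation scores above 10%, or exactly half above 10 with the replicate mean above 10; inconclusive = replicate mean below 10 yet half the replicates above 10; inactive = over half of replicates below 10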;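 note: wells of about 30 µL received 50 nL stock; many hits fall short of the cut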
Calb FLC: C. albicans growth modulation with fluconazole; C. albicans CaCi-2 (fluconazole-resistant clinical isolate) + fluconazole, Alamar Blue growth, 48 h; growth inhibition, % (test concentration not listed); actives 0.57% (n = 300,000); AID 1979;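 active = most replicates above 75%; inconclusive = exactly half above 75%; inactive = most below 75%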;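 note: all wells also contain fluconazole at 8 µg/ml as a sub-toxic cotreatment; 0% = median of DMSO wells and 100% = median of geldanamycin control wells; wells of about 8 µL received 7.5 nL stock; the first replicate is given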
LANA-H2B inh: blocks KSHV LANA binding to histone H2A/H2B. Q9QR71. cell-free LANA-H2A/H2B peptide, fluorescence polarization. inhibition, % (concentration not given with the values). actives 0.6% (n = 320,000); in the data active = inhibition mostly above about 10%, no sharp cut-off; inactive = mostly below about 6.7%;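 note: stock transfer was 7.5 nL into about 10 µL; 0% = median of vehicle wells and 100% = median of positive control wells; one replicate is shown; the record names a cut of 25% in any replicate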
ALR H2O2 inh: inhibitors of human sulfhydryl oxidase ALR; actives 3.8% (n = 290,000); purified ALR, DTT oxidation, H2O2 HRP-luminol luminescence; inhibition, % (concentration not given with the values); P55789;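 active = mean and each replicate at 75% or more; inconclusive = only one of the two met; inactive = neither met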;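 note: stock transfer was 7.5 nL into about 7.5 µL; 0% = neutral wells and 100% = wells with inactivated enzyme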
Target sequence (P55789 whole entry, looked up): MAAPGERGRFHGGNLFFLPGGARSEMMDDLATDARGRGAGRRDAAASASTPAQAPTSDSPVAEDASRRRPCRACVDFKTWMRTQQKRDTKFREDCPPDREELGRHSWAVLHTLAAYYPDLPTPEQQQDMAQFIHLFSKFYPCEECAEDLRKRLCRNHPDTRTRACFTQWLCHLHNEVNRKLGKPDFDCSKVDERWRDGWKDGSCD
T cruzi inh: blocks replication of Trypanosoma cruzi | inhibition, % (test concentration not listed) | actives 1.4% (n = 300,000) | T. cruzi beta-gal in NIH3T3, luminescence, 90 h;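 active = mean inhibition across valid replicates above about 55%, limit read from the data; inconclusive = mean below that limit but half or more replicates reach it; inactive = mean below it, under half of replicates reach it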;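 note: signal also drops with host cell toxicity which is not excluded here; 0% = plate median of DMSO wells and 100% = zero luminescence signal; higher percent means less beta-gal luminescence so fewer parasites; stock transfer was 50 nL into about 50 µL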
B2AR ag: human beta-2 adrenergic receptor agonism by FAP; P07550; Am2.2-beta2AR cells, FAP receptor internalization, flow cytometry; reference of the scale not given here; response, % (no concentration beside the values); actives 0.43% (n = 340,000); AID 504454;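 active = response above a set limit, near 3 SD of response in nonfluorescent compounds, cut at about 42% in these data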;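 note: stock transfer was 100 nL into about 11 µL; a reference agonist was the positive control; negative values mostly stem from fluorescent compounds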
Target sequence (P07550 whole entry, looked up): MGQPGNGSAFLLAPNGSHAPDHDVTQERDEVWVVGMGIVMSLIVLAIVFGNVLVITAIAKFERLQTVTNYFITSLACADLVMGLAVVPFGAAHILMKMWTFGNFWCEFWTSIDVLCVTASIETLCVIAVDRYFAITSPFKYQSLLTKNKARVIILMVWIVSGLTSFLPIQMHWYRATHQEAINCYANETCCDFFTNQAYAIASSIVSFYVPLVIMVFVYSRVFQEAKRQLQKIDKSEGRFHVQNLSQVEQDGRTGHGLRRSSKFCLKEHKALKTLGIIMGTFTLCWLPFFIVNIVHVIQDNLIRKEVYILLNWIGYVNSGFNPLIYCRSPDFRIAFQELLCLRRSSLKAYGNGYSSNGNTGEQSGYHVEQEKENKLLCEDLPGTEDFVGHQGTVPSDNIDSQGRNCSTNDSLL
Beta cell apopt: beta cell apoptosis inhibition; INS-1E cytokine-induced death, ATP luminescence, 48 h; percent of positive-control rescue, neutral wells zero; protection from apoptosis, % (test concentration not listed); actives 0.8% (n = 300,000); AID 435005;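 active = all replicates at 75% or more, or half of them and the mean; inconclusive = half reach 75% but not the mean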;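 note: 0% = cytokine-treated negative control wells and 100% = positive control rescue; higher means more ATP so stronger rescue from cytokine killing; wells of about 40 µL received 100 nL stock; the first replicate is given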
rRNA inh HTS OD600: second read-out of rRNA inh HTS, no call of its own (marks repeat the call); OD600 change, %; measured here: OD600 growth;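 optical density of the mix in the first replicate; 0 = DMSO median and -100 = no signal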
rRNA inh HTS RFP: further read-out of rRNA inh HTS, marked with its call; RFP signal change, %; measured here: RFP humanized mutant strains;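 first replicate; 0 = DMSO median and -100 = no signal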
* = called active by the depositor; u = inconclusive; x = no result given. An excerpt, so the mix of outcomes need not match the whole.

SMILES | rRNA inh HTS | rRNA inh HTS OD600 | rRNA inh HTS RFP | A1 inh | Calb FLC | LANA-H2B inh | ALR H2O2 inh | T cruzi inh | B2AR ag | Beta cell apopt
Cc1ccc(-c2nc(-c3ccccn3)no2)cc1[N+](=O)[O-] | 9 | 3 | 1.0 | -7.5 | 0 | -3.7 | -11 | -17 | -9 | 5
COc1ccc(/C=C2/Sc3ccc(C(=O)NCCCN4CCOCC4)cc3NC2=O)cc1OC | 3 | -1 | -3.4 | 0.6 | 16 | -0.8 | -8 | 45 | 20 | x
CC(C)C1COC(c2cccc3ccccc23)=N1 (centres undefined) | -10 | 7 | 0.0 | 0.5 | -12 | -4.3 | -1 | -9 | 1 | 5
CSc1nc(N2CCOCC2)c2c(c1C#N)CC(C)(C)OC2 | x | x | x | 0.3 | -5 | -1.9 | -6 | -13 | 8 | -4
COc1ccc(OCC(=O)N2CCN(C(=O)c3ccco3)CC2)cc1 | x | x | x | -0.1 | -1 | 5.3 | -18 | -5 | -7 | -1
COC(=O)[C@H](C)NC(=O)Nc1ccc(S(N)(=O)=O)cc1 | x | x | x | 0.9 | 0 | -4.2 | -4 | -5 | 1 | x
COc1ccccc1N1CCN(CCCNC(=O)Nc2ccccc2)CC1 | x | x | x | 1.9 | 3 | 3.0 | 54 | 16 | 0 | x
Cc1cc(C)cc(-c2nc(-c3ccncc3)no2)c1 | 13 | 4 | 6.4 | -1.9 | 1 | 2.3 | -3 | 1 | 13 | 1
CN1CCN(S(=O)(=O)c2ccc(NC(=O)c3ccco3)cc2)CC1 | x | x | x | u | 4 | -4.4 | -8 | -11 | -2 | 1
COc1ccc(-c2nc3c4ccccc4ccn3c2CN2CCOCC2)cc1OC | -12 | -8 | 7.4 | -0.7 | -5 | -0.3 | x | 6 | 53* | 6
COCCn1c(N)c(N(Cc2ccccc2)C(=O)c2cc3ccccc3o2)c(=O)[nH]c1=O | 7 | 5 | 0.5 | -0.3 | 9 | 7.8 | x | -3 | 2 | -9
Cc1ccc(C)c(OCc2cc(C(=O)N3CCN(c4ccccc4)CC3)no2)c1 | -17 | -19 | -3.7 | -0.4 | 0 | -7.0 | -3 | 11 | -2 | 1
COc1ccc(CNC(=O)c2cccnc2SC)cc1OC | 16 | 10 | -0.8 | 0.0 | -6 | -0.8 | -1 | -14 | 1 | 1
O=C(Nc1ccc(S(=O)(=O)N2CCOCC2)cc1)C1CCCCC1 | x | x | x | 1.1 | -3 | 3.8 | 4 | -15 | 2 | -1
Cc1ccccc1C(=O)OC1OC(=O)C(Cl)=C1Nc1ccccc1 (centres undefined) | -54 | -77 | -15 | 1.1 | -8 | 4.4 | 3 | -34 | -6 | -4
CCCCN(CC)C(=O)c1ccccc1Oc1ccccc1 | x | x | x | -0.2 | 6 | -4.3 | 1 | 3 | 6 | -3
Cn1c(NC(=O)/C=C/c2ccccc2)cc(=O)n(C)c1=O | x | x | x | 0.1 | -5 | 0.3 | 0 | -13 | -5 | -1
Cc1cc(-c2csc(NC(=O)c3ccc(=O)[nH]c3)n2)c(C)n1Cc1ccccc1 | 2 | 3 | -1.2 | -0.2 | 9 | 1.8 | -7 | -17 | -2 | -5
COc1ccccc1CNC(=O)Cn1ccc2cc(S(=O)(=O)N3CCCC3)ccc21 | 4 | 12 | -0.9 | -0.6 | 0 | -2.9 | -10 | 15 | 4 | -6
O=C(NC1=NCCS1)c1sc2cc(F)ccc2c1Cl | x | x | x | -2.8 | 3 | 6.2 | 99* | -20 | 11 | -15
CCN(CC)S(=O)(=O)c1ccc(C)c(NC(=O)COC(=O)c2ccc(C)c(S(=O)(=O)N3CCOCC3)c2)c1 | x | x | x | -0.4 | 10 | -4.5 | -10 | 4 | -1 | -1
COc1ccc(C(=O)c2c[nH]c(C(=O)NCc3cccnc3)c2)cc1 | x | x | x | -1.3 | 2 | 5.4 | 10 | 1 | -9 | 13
O=C(COC(=O)/C=C/c1cccc(C(F)(F)F)c1)NC1CCCCCC1 | 12 | 19 | 0.3 | -0.4 | x | -4.5 | -3 | x | 2 | 3
Nc1c(C(=O)N/N=C/c2ccc([N+](=O)[O-])cc2)sc2nnc(-c3ccccc3)c(-c3ccccc3)c12 | x | x | x | 0.0 | 2 | -0.5 | -15 | -5 | x | -6
Clc1ccc(CNc2nc(N3CCOCC3)nc(N3CCOCC3)n2)cc1 | x | x | x | -0.8 | -13 | 0.2 | -4 | 10 | -9 | 2

Records listed above shown as hits in ALR H2O2 inh.
SMILES	rRNA inh HTS	rRNA inh HTS OD600	rRNA inh HTS RFP	LANA-H2B inh	ALR H2O2 inh	B2AR ag
O=C(NC1=NCCS1)c1sc2cc(F)ccc2c1Cl	x	x	x	6.2	99*	11

Entries of single compounds as entered above. Screens in order: rRNA inh HTS | rRNA inh HTS OD600 | rRNA inh HTS RFP | A1 inh | Calb FLC | LANA-H2B inh | ALR H2O2 inh | T cruzi inh | B2AR ag | Beta cell apopt
Profile of COc1ccccc1N1CCN(CCCNC(=O)Nc2ccccc2)CC1 → x | x | x | 1.9 | 3 | 3.0 | 54 | 16 | 0 | x
Profile of Cc1ccc(C)c(OCc2cc(C(=O)N3CCN(c4ccccc4)CC3)no2)c1 → -17 | -19 | -3.7 | -0.4 | 0 | -7.0 | -3 | 11 | -2 | 1
Profile of CSc1nc(N2CCOCC2)c2c(c1C#N)CC(C)(C)OC2 → x | x | x | 0.3 | -5 | -1.9 | -6 | -13 | 8 | -4

(further entries)
SMILES | rRNA inh HTS | rRNA inh HTS OD600 | rRNA inh HTS RFP | A1 inh | Calb FLC | LANA-H2B inh | ALR H2O2 inh | T cruzi inh | B2AR ag | Beta cell apopt
Cc1ccn(C)c(=N)c1 | 3 | 20 | -0.1 | 0.7 | -3 | -0.6 | -20 | -2 | -10 | -2
C=CCN1CCc2c(cc(O)c(O)c2Br)[C@@H](c2ccccc2)C1 | x | x | x | 0.0 | x | -0.6 | 99* | -5 | 8 | 1
O=C(OCCc1cc2ccccc2c(=O)o1)c1ccc(C(F)(F)F)cc1 | -3 | -1 | 8.3 | -0.5 | x | -2.5 | -3 | x | -2 | 0
COc1ccc(C(CNC(=O)c2ccc(NS(=O)(=O)c3ccc(F)c(C)c3)cc2)N(C)C)cc1 (centres undefined) | -1 | -10 | 6.3 | 0.2 | -2 | -6.4 | -6 | 3 | -6 | -4
COC(=O)C(C)(C(=O)OC)c1ccc([N+](=O)[O-])cn1 | x | x | x | -0.7 | -9 | -3.2 | -10 | -11 | -4 | -9
CNS(=O)(=O)c1cccc(C(=O)OCc2cc(C(C)=O)ccc2OC)c1 | -21 | -19 | -3.1 | 0.0 | -1 | -2.5 | 5 | -8 | -6 | -1
CCOC(=O)C1CCN(c2ncnc3cc(OC)c(OC)cc23)CC1 | -8 | -11 | 1.0 | 1.1 | -2 | 4.4 | -9 | 1 | 3 | -1
O=C(c1ccc(N2CCN(C(=O)c3ccc(F)cc3F)CC2)cc1)c1cccc(F)c1 | 2 | 5 | -0.5 | 0.8 | -3 | 3.1 | -3 | 32 | 19 | 6
COc1ccc(S(=O)(=O)NCCc2ccccc2)c2cccnc12 | -4 | -2 | -2.0 | 0.7 | -1 | -0.8 | 4 | 8 | -3 | -5
CCCCNC(=S)Nc1cccc(C(C)=O)c1 | x | x | x | 0.9 | -3 | -0.5 | -7 | -1 | -6 | 2
O=C(CSc1n[nH]c(-c2ccccc2)n1)Nc1ccccc1O | 1 | -12 | -3.4 | -0.1 | -1 | -1.8 | 35 | -3 | -6 | -2
COC(=O)Cc1ccc(NC(=S)NCc2ccc(Cl)cc2)cc1 | x | x | x | 0.5 | -14 | 3.1 | 19 | 2 | -4 | 1
COc1ccc(-c2c3c(=O)n(C)c(=O)n(C)c3cn2-c2cc(OC)ccc2OC)cc1 | x | x | x | 0.7 | -7 | -2.3 | -8 | 7 | 3 | 0
CCCn1c(SCC(=O)Nc2nc(C)c(C(=O)OC)s2)nnc1C(C)C | x | x | x | 1.5 | -4 | 2.2 | -9 | -4 | 3 | 2
O=C(Nc1ncc([N+](=O)[O-])s1)C1COc2ccccc2O1 (centres undefined) | -50 | -64 | 11 | -8.5 | x | -2.7 | 10 | -2 | 9 | 28
COc1ccc(Cc2noc(CN(C)CC3CCN(Cc4ccccc4)CC3)n2)cc1OC | 3 | 5 | -3.5 | -0.4 | -18 | -6.2 | 1 | 29 | -3 | 1
COc1ccccc1NC(=O)CSc1nc(O)cc(=O)[nH]1 | x | x | x | 0.3 | 4 | 1.3 | 98* | -2 | 12 | -6
Cc1cc(N2CCN(Cc3cn(C)nc3-c3ccccc3F)CC2)cc(C)n1 | 3 | 11 | -0.2 | 0.0 | -6 | 0.1 | x | -12 | -3 | 11
COc1ccc2c(c1)CC/C2=N\OC(=O)c1cccc(C)c1 | x | x | x | -8.0 | 8 | -2.7 | x | 3 | 7 | -1
Cc1c(NC(=O)CSc2nnc(Nc3ccccc3)s2)c(=O)n(-c2ccccc2)n1C | x | x | x | -0.3 | 5 | -3.6 | 1 | 2 | -12 | -7
CCn1c2ccccc2c2cc(/C=N/NC(=O)c3cc(O)cc(O)c3)ccc21 | -50 | -63 | -13 | 0.2 | 14 | 2.3 | 0 | 3 | 19 | 3
Cc1nc(C(=O)NNC(=O)c2ccccc2)c(C(F)(F)F)o1 | 4 | 0 | 0.3 | -0.3 | 0 | 0.7 | 3 | -15 | -2 | -4
N#Cc1c(NC(=O)c2nc3ncccn3n2)sc2c1CCCCC2 | x | x | x | -2.6 | 95* | 4.3 | x | x | -7 | 9
CCc1c(C)nc2cc(-c3ccccc3)[nH]n2c1=O | 0 | -5 | -4.8 | -1.9 | 9 | -1.1 | 12 | -1 | -5 | 0
Cc1ccc(-c2csc3ncnc(N4CCN(C)CC4)c23)cc1C | -16 | -18 | -6.7 | 0.7 | -4 | 13 | 2 | -15 | 6 | -1
Cc1ccc(NC(=O)COc2nsnc2N2CCOCC2)cc1Cl | -5 | -22 | 0.7 | 0.2 | -1 | -2.8 | x | 14 | -10 | -13
CC(C)c1cc(CNC(=O)C2CCC(=O)N(CCc3ccc(Cl)cc3)C2)on1 (centres undefined) | -12 | -9 | -1.5 | 1.4 | -6 | 14 | -2 | -6 | 3 | 4
O=C(CNCc1ccccc1)Nc1ccccc1-c1ccccc1 | 9 | 0 | 1.0 | 0.7 | -33 | 1.6 | -9 | 11 | 1 | -2
CN(C)CCCn1c(-c2ccccc2)nc(=S)c2c1CCCC2 | x | x | x | x | -9 | 1.4 | -17 | 59* | 1 | -3

4 of the entries above in order of the ALR H2O2 inh value, descending.
| canonical_smiles | ALR H2O2 inh |
| --- | --- |
| O=C(Nc1ncc([N+](=O)[O-])s1)C1COc2ccccc2O1 (centres undefined) | 10 |
| CNS(=O)(=O)c1cccc(C(=O)OCc2cc(C(C)=O)ccc2OC)c1 | 5 |
| COc1ccc(Cc2noc(CN(C)CC3CCN(Cc4ccccc4)CC3)n2)cc1OC | 1 |
| O=C(OCCc1cc2ccccc2c(=O)o1)c1ccc(C(F)(F)F)cc1 | -3 |
